Tg IFNy HTS: inhibitors of Toxoplasma gondii growth with IFN-gamma; actives 3.8% (n = 69,000); activity change, negative = inhibition, %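 (about 20 µM by stock and volumes)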; Toxoplasma gondii growth in IFN-gamma-treated host cells; hits give low values; reference of the scale not given here; AID 1259416;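 active = below -70%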;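 also: host cells are HeLa cells infected with Toxoplasma gondii; parasite growth read as luciferase light; one replicate is shown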
* marks the source's active call; other numbers are inactive results; i = inactive; & = joins results of further samples. Not all compounds are listed, so the mix of outcomes need not match the whole.

#	Structure	Tg IFNy HTS
1	CN(C)CC(=O)N1[C@H](C#N)[C@H](c2ccccc2-c2ccccc2F)[C@H]1CO	13.7
2	OC[C@H]1Nc2ccc(-c3cccc(F)c3)cc2[C@H]2[C@@H]1CCN2Cc1ccc(F)cc1	-58.0
3	Cc1nc2ccc(C(=O)N3CCC(CO)(CCCc4ccccc4)CC3)cc2[nH]1	11.3
4	CC1=C(C(=O)NCCC(C)C)C2(CCN(Cc3ccccc3)CC2)OC1=O	200.4
5	COc1ccccc1OCc1cc(C(=O)N(C)Cc2cc(C)no2)no1	-9.5
6	COc1cccc(C2(O)CCCC3CN(C(=O)c4ccc(-n5cnnc5)cc4)CC32)c1 (stereo not drawn)	47.2
7	C/C(=C\c1ccc(C(=O)O)cc1)c1ccc2c(c1)C(C)(C)CCC2(C)C	14.6&15.6
8	Cc1ccc(-c2noc(=O)n2CC(=O)N(C)C)cc1	1.2
9	CCNC(=O)[C@@H]1C[C@H](N)CN1C(=O)c1cccnc1SC	-6.8
10	CC[C@@H](Cn1nc(-c2cccs2)ccc1=O)NC(=O)CCn1c(=O)oc2ccccc21	-6.5
11	COc1ccc(C)cc1NC(=O)N1CCC(c2nc(C(=O)N3CCCC3)c(C)o2)CC1	33.6
12	CCN1CCO[C@H]2CN(C(=O)c3ccc4[nH]ccc4c3)CC[C@@H]2C1	-5.8
13	N#Cc1nnn(-c2cc(C(F)(F)F)cc(C(F)(F)F)c2)c1N	-7.4
14	O=C(CCc1ccccc1)Nc1ccccc1C(F)(F)F	29.9
15	CCC(C)NC(=O)N1CCC2(CC1)Nc1cc(F)ccc1-n1cccc12 (stereo not drawn)	85.5
16	CCn1c(C2CCCN(Cc3nc(C(C)C)cs3)C2)nn(C)c1=O (stereo not drawn)	6.2
17	COc1cccc(CNC(=O)[C@H]2[C@H](CO)[C@H]3Cn4c(ccc(-c5cncnc5)c4=O)[C@H]3N2C)c1	12.2
18	CC1CCN(C(=O)CCNc2c(-c3ccc(F)cc3)nc3cnccn23)CC1	81.3
19	CCCNC(=O)N1CC2(CCN(Cc3nccs3)CC2)c2c([nH]c3cc(OC)ccc23)[C@@H]1CO	34.7
20	O=C(Cn1c(=O)cc(C(=O)N2CCCCC2)c2ccccc21)Nc1ccc([N+](=O)[O-])cc1	5.0
21	C[C@@H]1CCCCO[C@@H](CN(C)S(=O)(=O)c2ccc(Cl)cc2)[C@H](C)CN([C@@H](C)CO)C(=O)c2cc(NC(=O)Nc3ccc(C(F)(F)F)cc3)ccc2O1	-40.1
22	CCn1c(=O)c(-c2nc(-c3ccccc3F)no2)c(O)c2ccc(F)cc21	-0.6
23	CCN1c2ccc(C)cc2C(=O)NC12CCN(C(=O)c1ccc(OC)cc1)CC2	7.4
24	COc1ccc(-c2nc(C)c(CCNS(=O)(=O)c3ccc(C)c(C)c3)s2)cc1	i
25	COc1ccc(NC(=O)c2cn(C)nc2CC2CCN(C(=O)Cn3cccn3)CC2)cc1	-46.5
26	Cc1ccc(NC(=O)CCCn2ccnc2)cc1S(=O)(=O)N1CCOCC1	-6.9
27	CN(C)C1CCN(Cc2cccs2)C(C(=O)O)C1 (stereo not drawn)	51.3
28	CCOC(=O)C1CCN(C(=O)C2Cc3ccccc3N2C(=O)OCc2ccccc2)CC1 (stereo not drawn)	-23.6
29	COc1ccc(Cc2nnc(NC(=O)c3sc4ccccc4c3Cl)s2)cc1OC	87.0
30	CCN1c2cc(C)ccc2-n2cccc2C12CCN(C(=O)NC(C)C)CC2	-16.0

Down the list, from the results shown:
Entries 12 to 22 in Tg IFNy HTS, in turn: -5.8, -7.4, 29.9, 85.5, 6.2, 12.2, 81.3, 34.7, 5.0, -40.1, -0.6

Remaining list, next part:
#	Structure	Tg IFNy HTS
31	CCCc1nc(C(=O)NCc2nnc(-c3ccccc3)o2)cs1	-2.7
32	Cc1c(C)n(Cc2ccco2)c2ncnc(Nc3ccccc3O)c12	51.5
33	COCCC(=O)C1CC2(CO1)CN(C(=O)c1ccccc1)c1ccccc12 (stereo not drawn)	153.9
34	CCS(=O)(=O)N1CCC2(CC1)OC(=O)C(C)=C2C(=O)NCc1ccc(OC(C)C)cc1	27.0
35	O=C(c1cn2cccnc2n1)N1CCOC(c2ccc(Cl)c(Cl)c2)C1 (stereo not drawn)	-5.7
36	COCCNC(=O)C1CN(Cc2nccs2)Cc2ccnn2C1 (stereo not drawn)	25.7
37	Cc1nc(CN)cc(N2[C@@H]3CC[C@H]2CC(O)C3)n1 (stereo partly drawn)	-4.4
38	Cc1ccc(-c2nc3c(s2)CN(C(=O)Nc2ccccc2C(F)(F)F)CC3)cc1	202.0
39	O=C(c1cccc(-n2cnnc2)c1)N1CCc2onc(-c3cccc(F)c3)c2C1	-9.8
40	Cc1cnc(NC(=O)C2CC(=O)N(c3ccc(OC(C)C)cc3)C2)s1 (stereo not drawn)	-7.1
41	O=C1CC2C(CCN2S(=O)(=O)c2ccccc2)N1CC1CC1 (stereo not drawn)	5.2
42	O=C([C@H]1CCCO1)N1CCc2nnc(CCc3ccccc3)n2CC1	-0.4
43	CN1CCN(C(=O)c2cc3ccc(-c4cccc(Cl)c4)cn3c2-c2cocn2)CC1	-9.3
44	COCCNC(=O)C1CN(Cc2cnn(C)c2)Cc2ccnn2C1 (stereo not drawn)	43.5
45	CCNc1nc(SCC(=O)NC(=O)NC)nc2sc3c(c12)CCN(C)C3	-65.4
46	COc1ccccc1-c1nc(Cn2nnc(-c3nc(-c4ccc5c(c4)OCO5)no3)c2C)c(C)o1	10.0
47	CC(C)(C)C(=O)Nc1cccc(OC(F)(F)C(F)Cl)c1 (stereo not drawn)	32.0
48	CCN1c2cc(C)ccc2-n2cccc2C12CCN(C(=O)Nc1ccc(C)c(F)c1)CC2	22.0
49	C[C@@H]1CN([C@H](C)CO)C(=O)c2cccc(NS(=O)(=O)c3ccc(F)cc3)c2O[C@@H]1CN(C)Cc1ccc(Cl)c(Cl)c1	-68.0
50	CCc1nc(C)c(C(=O)N2CCOC(c3ccc(Cl)c(Cl)c3)C2)o1 (stereo not drawn)	-50.9
51	Cc1ccc2cc(C3(O)CCN(C(=O)CCCn4cncn4)CC3)ccc2n1	12.5
52	COc1ncnc(N)c1OC	16.3
53	O=C(c1ccc(CSc2ncn[nH]2)o1)N(Cc1ccsc1)C1CC1	-10.2
54	CC(C)n1c(C(=O)N2CCOCC2)nc2c1CCN(C(=O)c1ccccc1)C2	98.2
55	CN(C)C(=O)[C@]12CCO[C@H]1CCN(c1ncccn1)C2	20.4
56	COc1ccccc1-c1noc(-c2nnn(Cc3nc(-c4ccc(C)cc4)oc3C)c2C)n1	-3.6
57	COc1cc(-c2nc3ccccc3s2)ccc1O	-67.3
58	Cc1cc(C[C@@H]2CCC[C@H]2NCC2CCCCC2)on1	4.7
59	Cc1cc(C)n(C)c(=O)c1C(=O)Nc1ccc(N2CCCCC2)c(F)c1	11.2
60	CC(=O)NCC(=O)N1CCC2(CC1)C(=O)N(CC1CC1)CCN2C	-60.3

Not a retest: an excerpt of the list.
#	Structure	Tg IFNy HTS
37	Cc1nc(CN)cc(N2[C@@H]3CC[C@H]2CC(O)C3)n1 (stereo partly drawn)	-4.4
38	Cc1ccc(-c2nc3c(s2)CN(C(=O)Nc2ccccc2C(F)(F)F)CC3)cc1	202.0
39	O=C(c1cccc(-n2cnnc2)c1)N1CCc2onc(-c3cccc(F)c3)c2C1	-9.8

Further entries:
#	Structure	Tg IFNy HTS
61	CCS(=O)(=O)N1CCC(C(=O)NCCc2csc(-c3cccs3)n2)CC1	-1.6
62	O=C(Nc1ccc(Br)cc1F)c1nc(Nc2ccccc2)c2ccccc2n1	11.1
63	Cc1ccc(N2CCO[C@H]3CN(C(=O)N(C)C)C[C@@H]32)nn1	-13.6
64	Cc1ccc(CN2C[C@@H]3C[C@H](C(=O)NCC(C)C)[C@@H](C2)O3)o1	-5.5
65	CCN1CCN(C(=O)c2cc(-c3ccccn3)c(N3CCOCC3)s2)CC1	-12.7
66	COc1ccc(N(Cc2nc(-c3cccc(C)c3)oc2C)S(=O)(=O)c2ccccc2)cc1	-60.0
67	Cc1[nH]cnc1CN1CCc2c(c3ccccc3n2C)C1=O	23.3
68	COCC(=O)Nc1ccc2c(c1)C(=O)N(C)[C@@H]1CC[C@@H](CC(=O)NC3Cc4ccccc4C3)O[C@H]1CO2	2.5
69	COc1cc(C(=O)NC(c2ccccc2)c2ccccc2OC)nc(OC)n1 (stereo not drawn)	25.4
70	CCOC[C@@H]1CCC2C(CCN2C(=O)CCc2ccccc2)O1 (stereo partly drawn)	29.7
71	O=C(C1CC=CCC1)N1CCc2onc(-c3ccc(C(F)(F)F)cc3)c2C1 (stereo not drawn)	1.3
72	Cc1noc(C)c1NC(=O)N1C[C@@H](O)COC[C@@H]2O[C@@H](CC(=O)NCC3CC3)CC[C@H]21	12.0
73	N#C[C@@H]1[C@H](c2ccc(-c3cccc(F)c3)cc2)[C@H](CO)N1C(=O)CN1CCOCC1	0.6
74	COC(=O)c1cc(C)nc2c1c(=O)n(Cc1nc(-c3ccc(OC)cc3)oc1C)c(=O)n2C	10.2
75	O=C(O)C1CC2(CCNCC2)CN1C(=O)C1(c2ccc(Cl)cc2)CCC1 (stereo not drawn)	2.9
76	CCn1c(-c2cc(C3CC3)[nH]n2)n[nH]c1=O	1.3
77	CCN(Cc1nc(COC)no1)C(=O)c1cccnc1C	4.4
78	C[C@@H]1CN([C@@H](C)CO)C(=O)CCCn2nncc2CO[C@@H]1CN(C)C(=O)c1cc(-c2ccccc2)on1	90.2
79	CC(=O)Nc1ccc2nc(-c3ccc(C)o3)[nH]c2c1	5.0
80	CCS(=O)(=O)N1CC2(C1)[C@@H](c1ccccc1)[C@@H](CO)N2Cc1ccc(F)cc1	-29.0
81	CC1CCCC(C)N1 (stereo not drawn)	21.9
82	CCc1nc(OCC(=O)Nc2cc(C)cc(C)c2)c2ccccc2n1	-5.5
83	Cc1cc(C)cc(NC(=O)C(=O)NCCc2sc(-c3cccc(C)c3)nc2C)c1	46.5
84	CCN1CC(=O)NCC12CCN(C(=O)Nc1cccc(OC)c1)C2 (stereo not drawn)	4.1
85	COCC(=O)Nc1ccc2c(c1)C(=O)N(C)[C@H]1CC[C@H](CC(=O)N3CCc4ccccc4C3)O[C@H]1CO2	-19.0
86	c1ccc2c(c1)c1ccccc1c1nn3nnnc3nc21	8.7
87	CS(=O)(=O)c1ccc(-c2nccn2CCN2CCCOC2=O)cc1	28.8
88	CC(C)Oc1ncnc2c1CCN(C(=O)c1cscn1)CC2	-6.9
89	CCc1cccc(-n2nnc(C(=O)N3CCC(N4CCCCC4)CC3)c2-c2ccncc2)c1	-44.9
90	CC1Cc2ccccc2N1S(=O)(=O)c1csc(C(=O)Nc2ccccc2)c1 (stereo not drawn)	-103.0*
91	O=C(O)CN1CCCC2(CCN(c3ccccc3)C2=O)C1 (stereo not drawn)	4.6
92	COC(=O)c1[nH]c2ccc(C)cc2c1NC(=O)CN1CCc2cc(OC)c(OC)cc2C1	30.2
93	CC(=O)c1ccc(CCCCCCCCCC(=O)O)s1	-19.4
94	Cc1ccsc1-c1cn(CCCN2CCCC(C(N)=O)C2)nn1 (stereo not drawn)	0.1
95	Cc1cc(C)c(S(=O)(=O)NCCc2csc(-c3cccc(F)c3)n2)c(C)c1	61.0
96	O=c1c(N2CCCCC2)coc2ccccc12	-11.3
97	O=S(=O)(NCCc1csc(-c2ccc(Cl)cc2)n1)c1cccs1	-25.0
98	COc1ccc([C@@H]2C/C=C\C[C@@H](c3ccc4c(c3)OCO4)NC(=O)CCC(=O)N2)c(OC)c1	-21.4
99	CCCN1C(=O)CCc2cc(NS(=O)(=O)c3ccc(C(F)(F)F)cc3)ccc21	-82.3*
100	CCCC(=O)N1CCCC1c1nc(Nc2ccccc2)cc(-c2ccncc2)n1 (stereo not drawn)	-20.3
101	O=C1COc2ccc(C(=O)C3CCN(C(=O)C4CCC4)CC3)cc2N1	-43.4
102	Cc1nn(CC(=O)NCCN2CCCCC2)c(=O)c2nc(-c3ccccc3)sc12	-30.2
103	CN(C)CC1CN(Cc2ccncc2)Cc2nccn2C1 (stereo not drawn)	21.1
104	COc1ncccc1-c1ccc(F)cc1O	0.0
105	CC1(C)C2CC[C@]3(C)C(C(=O)C=C4[C@@H]5C[C@@](C)(C(=O)O)CC[C@]5(C)CC[C@]43C)[C@@]2(C)CC[C@@H]1OC(=O)CCC(=O)O (stereo partly drawn)	18.8
106	OCCC1CN(C2CCN(c3ccccc3)CC2)CCN1Cc1ccccc1F (stereo not drawn)	9.7
107	CN1c2ccc(-c3cccc(C#N)c3)cc2[C@@H]2[C@@H](CCN2C(=O)c2cccc(F)c2)[C@@H]1CO	-52.1
108	O=S(=O)(Oc1ccccn1)c1cc(Cl)ccc1Cl	12.7
109	CCN(Cc1nc[nH]c1C)C1CCS(=O)(=O)C1 (stereo not drawn)	0.8
110	COc1cc(CN2CCN3CCNC(=O)C3C2)ccc1N1CCCC1 (stereo not drawn)	111.7
111	Cc1nc(-c2ccccc2)sc1CCNC(=O)C(=O)Nc1ccccc1Cl	83.6
112	O=C(O)c1ccc(Cn2cncn2)cc1	17.4
113	COc1cccc(N(Cc2nc(-c3ccc(C)cc3)oc2C)S(=O)(=O)c2ccc(C)cc2)c1	-5.1
114	Cc1ccccc1C(=O)Nc1ccc(C(=O)N2CCCC(N(C)C)c3ccccc32)cc1 (stereo not drawn)	4.0
115	CCC(=O)N1Cc2cc(C(=O)N(C)C)nc(-c3cccc(-c4cncnc4)c3)c2[C@H]1CCO	-19.2
116	CC(C)(C)c1cc2nc(C(F)(F)F)cc(Sc3ccc(Cl)cc3)n2n1	10.7
117	CO[C@H]1CN(C)C(=O)c2cc(NS(C)(=O)=O)ccc2OC[C@H](C)N(C(=O)C2CCOCC2)C[C@@H]1C	9.7
118	Cc1[nH]c2c(CN3CCNC(C(=O)NC4CC4)C3)cccc2c1C (stereo not drawn)	8.6
119	Cn1cc(CN2CCc3ncnc(-c4ccccc4)c3CC2)cn1	-8.4
120	O=C(NCc1ccccn1)C1CCCN(C2CCN(C(=O)c3ccco3)CC2)C1 (stereo not drawn)	-1.1

Screens deposited in PubChem BioAssay by Broad Institute.
